From PubChem
FGF22 binding – binders of recombinant human FGF22 by thermal shift | Q9HCT0 | SYPRO orange fluorescence; percent of sucrose octasulfate shift, DMSO zero | calls only at 9.99 µM | hit rate 1.5% among 340,000 | AID 651658;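 active = melting point raised past a set limit in the mean and every replicate; three in four hits are not shown here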
Target sequence (Q9HCT0 whole entry, looked up): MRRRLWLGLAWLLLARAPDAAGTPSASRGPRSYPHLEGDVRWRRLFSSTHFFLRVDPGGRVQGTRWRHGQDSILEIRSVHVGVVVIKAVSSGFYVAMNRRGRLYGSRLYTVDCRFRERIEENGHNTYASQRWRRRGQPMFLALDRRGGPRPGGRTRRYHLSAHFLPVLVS
HNF4A DNA FP – change in binding of human HNF4 alpha to DNA. P41235. HNF4a-FITC DNA binding, fluorescence polarization, 1 h. activity change, % at 10 µM. hit rate 0.3% among 360,000. AID 1224865; in the data active = activity change above about 30%, passing the limit was not always enough;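 also: controls were the assay level and a saturating level of protein; the project sought stronger binding though the title names inhibitors; some compounds called inactive have numbers as strong as hits; positive values seem to mean higher polarization but the record does not say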
Target sequence (P41235 whole entry, looked up): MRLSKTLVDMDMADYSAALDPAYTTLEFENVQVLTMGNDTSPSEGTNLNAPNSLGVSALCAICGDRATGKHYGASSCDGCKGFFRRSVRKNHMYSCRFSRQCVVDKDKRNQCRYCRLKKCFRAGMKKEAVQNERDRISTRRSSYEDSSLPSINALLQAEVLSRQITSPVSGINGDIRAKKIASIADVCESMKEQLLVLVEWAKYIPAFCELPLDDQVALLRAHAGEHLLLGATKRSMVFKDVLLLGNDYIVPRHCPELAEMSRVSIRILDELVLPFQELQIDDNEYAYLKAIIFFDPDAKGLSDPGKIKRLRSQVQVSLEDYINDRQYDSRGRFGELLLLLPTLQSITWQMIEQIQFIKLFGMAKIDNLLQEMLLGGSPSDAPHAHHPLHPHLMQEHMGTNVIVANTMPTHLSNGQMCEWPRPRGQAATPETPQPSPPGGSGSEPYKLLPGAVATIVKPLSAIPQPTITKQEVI
UCH37 inh – inhibitors of human deubiquitinating enzyme UCH37. Q9Y5K5. purified proteasome/UCH37, Ub-AMC cleavage fluorescence. inhibition, % (no concentration beside the values). hit rate 0.33% among 330,000. AID 588478;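 active = mean of two replicates above 20%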;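 also: 0% = compound-free wells with enzyme and 100% = wells lacking proteasome; stock transfer was 100 nL into about 20 µL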
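Material: Human UCH37 enzyme supplied as purified proteasome complex | Schedule: 30 min compound-proteasome preincubation then 25 min substrate reaction, room temperature | Detection: AMC fluorescence from Ub-AMC cleavage, excitation 355 nm, emission 460 nm | Benchmarks: Wells without proteasome as full block, compound-free enzyme plus substrate as uninhibited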
ALR H2O2 inh – human ALR oxidase inhibition via reduced H2O2; P55789; purified ALR, DTT oxidation, H2O2 HRP-luminol luminescence; inhibition, % (test concentration not listed); hit rate 3.8% among 290,000; AID 485317;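 active = mean and each replicate at 75% or more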;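 also: stock transfer was 7.5 nL into about 7.5 µL; 0% = neutral wells and 100% = wells with inactivated enzyme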
E coli growth – blocks Escherichia coli growth; OD600, 23 h; stronger effect = lower value; OD600 absorbance (test concentration not listed); hit rate 0.21% among 330,000; AID 1053175;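 active = OD600 absorbance below the run mean of sample wells minus 3.6 SD, in any replicate, cut at about 0.56 in these data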;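 also: stock transfer was 300 nL into about 60 µL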
rRNA inh HTS – inhibits bacterial ribosomal RNA function over humanized ribosomes | E. coli WT GFP vs humanized-ribosome RFP mutants, fluorescence, 24 h; stronger effect = lower value; DMSO median 0, no signal -100 | GFP signal change (wild-type ribosome), % (no concentration beside the values) | hit rate 1.6% among 350,000 | AID 720706;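 active = significant combined selectivity score with lowered wild-type GFP, culture density cut under 30%, mutant RFP and density less affected; inactive = any of these conditions unmet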; also: one replicate is shown; some compounds called inactive have numbers as strong as hits
B2AR ag – agonists of human beta-2 adrenergic receptor inducing internalization; hit rate 0.43% among 340,000; Am2.2-beta2AR cells, FAP receptor internalization, flow cytometry; reference of the scale not given here; response, % (concentration not given with the values); P07550;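 active = response above a set limit, near 3 SD of response in nonfluorescent compounds, cut at about 42% in these data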;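 also: stock transfer was 100 nL into about 11 µL; a reference agonist was the positive control; negative values mostly stem from fluorescent compounds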
Target sequence (P07550 whole entry, looked up): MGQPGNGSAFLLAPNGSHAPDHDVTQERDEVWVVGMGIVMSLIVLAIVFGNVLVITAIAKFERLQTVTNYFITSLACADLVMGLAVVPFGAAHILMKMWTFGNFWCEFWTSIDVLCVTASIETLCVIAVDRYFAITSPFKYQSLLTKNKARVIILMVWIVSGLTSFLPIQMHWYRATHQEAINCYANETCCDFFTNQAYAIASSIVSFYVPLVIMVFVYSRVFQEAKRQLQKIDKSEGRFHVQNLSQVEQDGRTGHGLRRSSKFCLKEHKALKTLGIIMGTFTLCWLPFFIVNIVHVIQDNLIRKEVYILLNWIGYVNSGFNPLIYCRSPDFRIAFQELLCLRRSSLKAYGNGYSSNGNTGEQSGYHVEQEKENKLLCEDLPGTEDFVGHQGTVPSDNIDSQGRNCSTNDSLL
rRNA inh HTS OD600 – recorded beside rRNA inh HTS, whose call it bears; OD600 change, %; measured here: OD600 growth;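 optical density of the mix in the first replicate; 0 = DMSO median and -100 = no signal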
rRNA inh HTS RFP – further read-out of rRNA inh HTS, marked with its call; RFP signal change, %; measured here: RFP humanized mutant strains;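 first replicate; 0 = DMSO median and -100 = no signal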
* marks the source's active call; other numbers are inactive results; i = inactive; / = no result given; + = active, no number. This is a subset; count on the stated rates, not on these rows.

SMILES	FGF22 binding	HNF4A DNA FP	UCH37 inh	ALR H2O2 inh	E coli growth	rRNA inh HTS	rRNA inh HTS OD600	rRNA inh HTS RFP	B2AR ag
O=C(c1cccc([N+](=O)[O-])c1)N1CCN(c2cccc(Cl)c2)CC1	/	2.1	5.3	/	0.71	/	/	/	0
Cc1c(C(=O)NCc2ccc(C#N)cc2)sc(=O)n1Cc1ccccn1	i	-0.5	/	/	/	14	26	4.5	/
CC(=O)Nc1ccc(S(=O)(=O)n2cnc(C)c2)cc1	/	0.1	-0.1	-1	0.71	/	/	/	2
COc1cccc(CNC(=O)C2CCN(S(=O)(=O)c3cccs3)CC2)c1	i	1.9	0.5	-4	0.64	-6	-5	-3.2	-3
Cc1ccc(C(=O)N2CCN(c3ncccn3)CC2)c(C)c1	i	-0.5	-3.2	22	0.68	4	0	0.4	0
Cc1cccc(Nc2ncnc3onc(-c4cccc(Cl)c4)c23)c1C	i	-2.3	3.9	1	/	-13	-18	-12	-2
CC1CCCCN1CCCNC(=O)c1ccc2c(=O)n(CCc3ccccc3)c(=O)[nH]c2c1 (stereo not drawn)	/	1.8	-17	-5	0.74	/	/	/	-5
Cc1cccc(N=C2NC(=O)/C(=C/c3cccn3C)S2)c1C	i	24	5.9	15	0.66	-26*	1.7*	9.8*	14
COc1ccc(-c2c3c(cc4ncn(Cc5ccccc5)c24)COC3=O)cc1	i	0.6	-10	4	0.68	-9	-3	-5.4	-7
CCOc1cc(Cl)c(S(=O)(=O)NCCCn2ccnc2)cc1Cl	i	-2.9	2.3	-11	0.69	-4	-8	1.1	-13
COc1ccc(CCC(=O)N(C)CC(=O)Nc2ccc(N3CCOCC3)cc2)cc1	i	3.3	3.4	94*	0.68	6	-3	0.2	1
COc1ccc(C(=O)COC(=O)C(CCSC)NS(=O)(=O)c2ccc(Cl)cc2)cc1 (stereo not drawn)	/	1.9	2.9	9	0.7	/	/	/	6
COc1cccc(C(=O)O)c1OS(=O)(=O)c1ccc(C)cc1	i	0.1	/	/	/	-1	6	-3.0	/
NC(=O)c1ccc(NC(=O)CS(=O)(=O)c2cn(CC(=O)N3CCCCC3)c3ccccc23)cc1	i	1.6	0.1	-2	0.69	23	19	1.0	-4
CCOCC(=O)Nc1cccc(C(=O)OCC)c1	/	0.6	1.1	15	0.76	/	/	/	5
Cc1cc(C)n(-c2nc3ccccc3nc2N2CCN(C(=O)c3ccc(Cl)cc3)CC2)n1	i	1.1	-4.8	-5	0.73	-17	-12	20	-13
CCOC(=O)C1CCCN(C(=O)c2cccc3ccccc23)C1 (stereo not drawn)	i	-2.8	4.5	-2	0.7	4	-5	0.0	1
O=C(/C=C/c1cccc(Br)c1)NCC1CCCCC1	/	-2.1	0.1	-6	0.7	/	/	/	-14
CCOc1cc(/C=N/O)cc(Br)c1OCc1ccc(Cl)cc1	/	0.0	/	-11	/	/	/	/	5
CN(Cc1ccccc1)c1nc(N)nc(Cl)c1C=O	i	1.9	6.1	/	0.7	-8	-18	-1.6	26
CCc1ccc(NC(=O)C(C)OC(=O)c2ccc(N3CCCC3)c([N+](=O)[O-])c2)cc1 (stereo not drawn)	i	4.0	5.4	-14	0.75	-3	5	2.0	-3
CCCOc1ccc(/C=N/O)cc1	/	3.0	/	1	/	/	/	/	-6
Cc1ccc2c(CN(C)Cc3ccc(Cl)cc3)cc(=O)oc2c1	i	0.4	2.9	3	0.69	3	10	-0.7	2
O=C(c1cc2ccccc2cc1OCC(O)CN1CCCCC1)N1CCCCC1 (stereo not drawn)	i	5.0	3.8	/	0.8	/	/	/	22

ALR H2O2 inh: hit marks shown above.
SMILES	FGF22 binding	HNF4A DNA FP	UCH37 inh	ALR H2O2 inh	E coli growth	rRNA inh HTS	rRNA inh HTS OD600	rRNA inh HTS RFP	B2AR ag
COc1ccc(CCC(=O)N(C)CC(=O)Nc2ccc(N3CCOCC3)cc2)cc1	i	3.3	3.4	94*	0.68	6	-3	0.2	1

Further results.
SMILES	FGF22 binding	HNF4A DNA FP	UCH37 inh	ALR H2O2 inh	E coli growth	rRNA inh HTS	rRNA inh HTS OD600	rRNA inh HTS RFP	B2AR ag
O=c1[nH]nc(Cc2ccccn2)c2ccccc12	/	-1.5	7.1	-2	0.68	/	/	/	-5
CN(C)CCCNc1cc(O)c2ncccc2c1	i	0.0	4.5	17	0.68	80	-2	-8.5	4
COc1ccccc1C1C(C(=O)c2cc3ccccc3o2)=C(O)C(=O)N1CCN1CCOCC1 (stereo not drawn)	/	1.7	5.1	6	0.69	/	/	/	-8
Cc1c(C(C)(C)O)[nH]c2ccc(C(F)(F)F)cc12	i	-0.7	0.9	-2	0.67	5	8	23	-3
Cc1c(NC(=O)Nc2ccccc2Cl)sc(=S)n1C	/	-0.2	-34	57	0.71	/	/	/	-4
COCCn1c(C)cc(C2=NNC(=Nc3ccc(F)cc3)SC2)c1C	i	4.1	7.0	/	0.65	9	14	1.0	12
COc1ccc(C(=O)OCC(=O)N2CCCC2=O)c(OC)c1	i	0.5	-2.9	-9	0.67	24	16	2.7	4
COc1ccccc1C(=O)NC(=S)Nc1ccc(NC(=O)c2ccco2)cc1	+	0.5	0.3	-7	0.67	-5	-5	-2.3	-16
COc1ccc(NC(=O)COC(=O)C(NC(=O)c2ccc(C)cc2)C(C)C)cn1 (stereo not drawn)	i	-4.2	1.4	-18	0.72	-1	3	-2.3	0
CCCc1n[nH]c2c1C(=O)CC(C)(C)C2	/	-6.3	4.7	-5	0.71	/	/	/	-1
COc1ncccc1C(=O)N1CCCC(C(=O)c2cc(F)ccc2F)C1 (stereo not drawn)	i	3.9	5.1	/	0.72	10	6	3.8	14
Fc1ccc(CNc2cnccn2)cc1	/	7.8	-288	-11	0.65	/	/	/	1
CCCS(=O)(=O)N1CCN(C(=O)c2ccco2)CC1	/	3.3	3.2	-2	0.66	/	/	/	1
O=C(CSc1nc2ccccc2c(=O)n1NC(=O)c1ccccc1)c1ccc(Cl)cc1	/	-0.5	-1.4	-3	0.75	/	/	/	-1
CCN(CC1COc2ccccc2O1)C(=O)CN1C(=O)NC(C)(c2ccc(C)cc2)C1=O (stereo not drawn)	/	-1.2	4.5	-8	0.69	-13	-16	3.6	5
O=C(c1cnc2n(c1=O)CCS2)N1CCN(c2ccccc2F)CC1	i	0.5	7.0	3	0.73	4	15	-0.1	-3
CCOC(=O)c1cnc2c(Cl)cccc2c1NCCN(C)C	/	0.7	1.7	-1	0.7	/	/	/	3
CC(NC(=O)c1cnccn1)c1ccc(S(N)(=O)=O)cc1 (stereo not drawn)	i	-3.4	2.8	-3	0.71	7	11	-0.5	6
CCN(CC)S(=O)(=O)c1ccc(NC(=O)CSc2nnc(-c3ccc(F)cc3)o2)cc1	/	0.3	-0.2	-4	0.71	/	/	/	-2
COc1cc(/C=N/NC(=O)CN(Cc2ccccc2)S(=O)(=O)c2ccc3c(c2)OCCO3)ccc1O	i	1.3	/	67	/	-16	-21	2.9	8
O=C(Cn1c(=O)oc2cccnc21)Nc1ccc(C(F)(F)F)cc1	i	-5.3	-23	-3	0.64	-13	3	8.2	2
CC(=O)c1ccc(OC(C)C)c(CN2CCCCC2)c1	i	-0.2	6.6	-14	0.69	13	-5	-1.9	16
Cc1ccc(N(CC(=O)NC(C)(C)C)C(=O)CS(=O)CC(=O)Nc2ccc(F)cc2)cc1 (stereo not drawn)	i	0.7	-1.6	-9	0.7	10	14	2.2	-2
COc1c2ccc(C(=O)NCc3cc(C(F)(F)F)cc(C(F)(F)F)c3)cc2nn1C	i	3.3	-15	1	0.68	0	-3	-8.6	0
CCOc1cc(C(=S)N2CCOCC2)ccc1OS(=O)(=O)c1ccccc1[N+](=O)[O-]	/	-1.8	4.9	-14	0.7	/	/	/	6
COCCCn1c(SCC(=O)N2CCc3ccccc32)nnc1-c1ccoc1C	/	0.9	-1.7	11	0.73	/	/	/	2
COc1cc(NC(=NS(=O)(=O)c2ccccc2)c2ccccc2)ncn1	i	0.8	1.7	/	0.69	14	4	1.9	-1
O=C(c1cc2ccccc2o1)N1CCN(S(=O)(=O)c2c(F)cccc2F)CC1	i	-3.2	0.3	-3	0.68	-7	-6	0.6	3
O=C(CSc1n[nH]c(=O)[nH]c1=O)N/N=C/C=C/c1ccccc1	i	2.9	/	-13	/	3	5	-3.0	-6
CNC(=O)Nc1ccc(Cn2cc(C(F)(F)F)ccc2=O)cc1	i	-2.7	0.2	-7	0.69	16	-3	-4.9	6
CCOC(=O)CCSc1nc(C)c2cc(OC)ccc2n1	/	1.4	-152	-10	0.7	/	/	/	10
CCOC(=O)c1[nH]c(C)c(C(=O)NC(C)(C)C)c1C	/	0.3	-0.2	-2	0.75	/	/	/	5
Cc1ccc2c(c1)N(CC(=O)NC1CCCC1)C(=O)C(C)O2 (stereo not drawn)	i	-0.3	0.4	/	0.69	7	6	-0.1	-2
O=C1c2ccccc2C(=O)N1CCCCN(C(=O)c1cc([N+](=O)[O-])cc([N+](=O)[O-])c1)c1ccc(Cl)cc1	i	0.7	4.1	-3	0.7	3	-6	1.9	0
CN(C)Cc1c(C(=O)N/N=C/c2cccc(OCc3ccccc3)c2)nnn1-c1nonc1N	i	3.8	/	0	/	-1	2	-1.4	0
COCCCNS(=O)(=O)c1ccc(OC)c(Cl)c1Cl	i	1.6	2.7	-4	0.61	0	-8	-1.3	-12
Cc1ccc2[nH]c(=O)c(CN(Cc3ccco3)C(=O)N3CCOCC3)cc2c1	i	3.7	-13	0	0.71	7	2	-4.3	-3
S=c1[nH]ncn1NCc1ccc(Cl)cc1Cl	i	-0.4	1.9	89*	0.67	1	-3	0.6	-7
Cc1cccc(C)c1N1C(=O)c2cccc([N+](=O)[O-])c2C1=O	/	0.4	-1.7	-10	0.69	/	/	/	1
COc1ccc(CN2CCOCC2)cc1Br	i	-1.0	-0.8	-9	0.65	/	/	/	2
O=C(C1=NN(c2ccccc2)C2C(=O)N(c3ccccc3)C(=O)C12)c1ccccc1 (stereo not drawn)	i	-9.8	-14	-6	0.7	/	/	/	-9
Cc1cccc(NC(=O)N2CCC(NC(=O)c3ccco3)CC2)c1	i	2.7	0.2	-23	0.69	3	3	-2.1	7
Cc1c(C)n(CC(O)CSc2ccccc2)c2ccccc12 (stereo not drawn)	i	-1.3	/	/	/	-55	-80	-20	/
Clc1ccc(-c2cn(-c3ccc(Cl)cc3)c3[n+]2CCCCC3)cc1	i	1.7	5.1	-6	0.69	-46*	-5.8*	-10*	-2
O=C(Nc1ncc([N+](=O)[O-])s1)C1CC(=O)N(c2ccc(F)cc2)C1 (stereo not drawn)	i	-1.1	7.5	49	0.56	-12	-20	3.7	3

Complete entries, looked up by structure.
Entry for `Cc1cccc(NC(=O)N2CCC(NC(=O)c3ccco3)CC2)c1` → FGF22 binding = i; HNF4A DNA FP = 2.7; UCH37 inh = 0.2; ALR H2O2 inh = -23; E coli growth = 0.69; rRNA inh HTS = 3; rRNA inh HTS OD600 = 3; rRNA inh HTS RFP = -2.1; B2AR ag = 7
Entry for `Clc1ccc(-c2cn(-c3ccc(Cl)cc3)c3[n+]2CCCCC3)cc1` → FGF22 binding = i; HNF4A DNA FP = 1.7; UCH37 inh = 5.1; ALR H2O2 inh = -6; E coli growth = 0.69; rRNA inh HTS = -46*; rRNA inh HTS OD600 = -5.8*; rRNA inh HTS RFP = -10*; B2AR ag = -2
Entry for `Cc1c(C)n(CC(O)CSc2ccccc2)c2ccccc12` (stereo not drawn) → FGF22 binding = i; HNF4A DNA FP = -1.3; UCH37 inh = /; ALR H2O2 inh = /; E coli growth = /; rRNA inh HTS = -55; rRNA inh HTS OD600 = -80; rRNA inh HTS RFP = -20; B2AR ag = /
